Bioassay records from PubChem BioAssay.
Sa ugtP lethal: growth inhibition of ugtP-null S. aureus, primary screen, RN4220 ugtP deletion, OD600 | 16 h; some inactives read as strong as hits | growth inhibition, % (concentration not given with the values) | 0.54% of 330,000 active | AID 1259309, 2017;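 active = z-score under -3 and OD600 up to 0.15 on both plates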;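 note: plate controls were untreated wells for no effect and antibiotic for full effect; wells of about 80 µL received 100 nL stock; the first replicate is given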
Sa RN4220 lethal: growth inhibition of S. aureus RN4220, primary screen, OD600. 16 h. 0.33% of 330,000 active. inhibition, % (concentration not given with the values);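 active = z-score of -3 or lower and OD600 up to 0.18 on both plates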;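 note: plate controls were untreated cells for no effect and reference antibiotic for full effect; stock transfer was 100 nL into about 80 µL; one replicate is shown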
Bead autofluor: compound fluorescence in toxin protease inhibitor counterscreen. compound autofluorescence counterscreen, microsphere flow cytometry; stronger effect = higher value. fluorescence intensity (concentration not given with the values). 3.1% of 360,000 active. AID 624483;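 active = at least 3 SD above the mean of all compounds, about 16000 in these data; inconclusive = too few beads counted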;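 note: 100 nL of 1 mM stock went into each well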
PrP 5UTR inh: inhibition of PrP 5' UTR reporter expression. cell-based PrP 5' UTR mRNA reporter, plate reader. inhibition, % (test concentration not listed). 0.35% of 340,000 active. AID 488862, 2010;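 active = every replicate at 50% or more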;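 note: 0 = median of the neutral control wells; tested in H4 reporter cells; numbers are from one replicate; inactives centre near -14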
Mtb hypoxia rep: PubChem AID 1159583 | fluorescence inhibition, % (test concentration not listed) | 0.1% of 300,000 active | M. tuberculosis hypoxia-regulated fluorescent reporter, fluorescence;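 active = 35 to 45% if threefold the growth effect, above 45% if 1.5-fold the growth effect; inactive = the rest, general growth blockers included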;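 note: wells of about 50 µL received 100 nL stock; 0% = vehicle wells and 100% = reference inhibitor wells; whole bacteria with a GFP reporter of the hypoxia response; strong numbers were not always called active; many hits fall short of the cut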
BJeLR lethal: MLPCN primary cell-based screen for lethality selective to Ras in HRASV12 cells | BJeLR (HRASV12) viability, CellTiter-Glo ATP luminescence, 48 h; reference of the scale not given here | inhibition, % (concentration not given with the values) | 0.17% of 300,000 active;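 active = replicate mean above 50%; inconclusive = above 50% but judged a plate artefact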;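 note: 50 nL library stock added to about 25 µL; numbers are from one replicate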
Mtb hypoxia rep growth: also measured in Mtb hypoxia rep; calls as there; growth inhibition, %; measured here: M. tuberculosis growth (absorbance);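 0% = vehicle and 100% = reference antibiotic; read after six days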
Starred values were filed as active, the others as inactive; ? = inconclusive; . = no result given.

SMILES,Sa ugtP lethal,Sa RN4220 lethal,Bead autofluor,PrP 5UTR inh,Mtb hypoxia rep,Mtb hypoxia rep growth,BJeLR lethal
Cn1nc(-c2ccccc2F)c2cc(C(=O)Nc3ccc4c(c3)OCCO4)sc21,-15,7.9,4276,-11,2,18,3
CCCC1=C/C(=C/c2ccc(-c3ccccc3OC)o2)C(=O)O1,8,7.3,3052,-11,1,1,-3
C=CCNC(=O)c1c(N)n(-c2cccc(S(N)(=O)=O)c2)c2nc3ccccc3nc12,3,-4.9,2222,-8,.,.,.
Cc1cc(C=NNC(=O)Cn2c3ccccc3c(=O)c3ccccc32)c(C)n1-c1ccc(Cl)cc1,-12,1.7,.,.,5,2,.
O=C(CSCc1ccccc1)NCc1ccc2c(c1)OCO2,12,1.9,2353,-9,.,.,-3
COC(=O)c1c(-c2ccccc2)c[nH]c1C,-2,-3.8,4884,-56,-28,11,0
CCOc1cc(C2NC(=O)N(C)C(C)=C2[N+](=O)[O-])ccc1OC(C)=O (configuration not stated),7,4.0,4064,-20,10,6,-2
CN(C)S(=O)(=O)c1ccc(NC(=O)c2ccc3ncsc3c2)cc1,15,3.9,.,.,1,6,4
Cc1cc(C)n2nc(C(=O)OCCOc3cccc(Br)c3)nc2n1,-8,-0.2,7995,-22,3,1,-9
O=C(NCc1cccs1)c1ccc(CS(=O)Cc2ccccc2Cl)o1 (configuration not stated),3,-0.5,5271,-5,3,6,-4
COc1ccc(OC)c(NC(=O)CSc2nnc(Cc3cccn3C)n2-c2ccc(F)cc2)c1,5,0.1,5518,-36,.,.,-11
COc1ccc(OCC(=O)Nc2cc(S(=O)(=O)N3CCCC3)ccc2OCC(F)(F)F)cc1,-1,-0.1,5632,-28,2,-1,.
Cc1cccc(Nc2nnc(SCC(=O)Nc3cccc(S(=O)(=O)N4CCCCC4)c3)s2)c1,26,20,2354,-25,3,0,2
OC1=C(O)c2nc3cc(C(F)(F)F)ccc3nc21,5,1.3,4191,-13,10,6,-6
O=C(c1cccc(C(F)(F)F)c1)C1CCCN(Cc2cccn2-c2ccccn2)C1 (configuration not stated),4,2.6,4405,-24,-4,13,1
Cc1cc(C)cc(N(CCC#N)C(=O)COC(=O)C2CCN(c3ccc(C(F)(F)F)cn3)CC2)c1,8,-4.0,4777,-2,2,-1,0
COc1ccc(Nc2nc(C)c(-c3ccccc3)s2)cc1,6,-9.7,2424,-64,0,-1,.
CN(C)C(=S)NC1CCS(=O)(=O)C1 (configuration not stated),7,3.2,4663,-18,4,6,-2
O=C(c1cccn(Cc2cccc(Cl)c2)c1=O)N1CCOCC1,-2,4.0,7081,-31,5,13,4
O=c1c2cn(Cc3ccc(F)cc3)c3ccccc3c-2nn1Cc1ccc(F)cc1,9,1.9,3819,-5,-1,-6,13
COc1ccc(-n2nnnc2SCC(=O)Nc2c(C)n[nH]c2C)cc1,-2,3.3,3914,-9,5,3,.
COc1cc(C=NNc2nc3ccccc3o2)cc(OC)c1O,-8,5.8,.,.,2,2,.
O=C(NCCCc1ccccc1)c1cccs1,16,7.6,7895,.,.,.,4
O=C(NCc1cccs1)NC1CCCCC1,1,0.1,3484,-48,.,.,1
N#Cc1ncc(Cc2ccccc2)nc1C#N,2,4.9,3874,-18,2,6,-3
CCOCCCNC(=O)Cn1ncc2c(=O)oc3ccccc3c21,4,5.7,6549,-5,5,2,-9
COc1cccc(C=NNC(=O)C(=O)Nc2ccccc2OC(F)(F)C(F)F)c1,12,0.1,.,.,12,9,.
Cc1cccc(C)c1NC(=O)C1C2C=CC(C2)C1C(=O)NCc1ccccn1 (configuration not stated),8,4.1,7602,-21,3,-2,5
CC(C)CCNC(=O)COC(=O)c1cc(Br)c(Br)s1,-2,0.7,4707,-15,11,7,11
CN1C(=S)SC(C)(C)C1N(O)C(=O)Nc1ccc(Cl)cc1 (configuration not stated),7,4.3,4888,-22,-12,-5,-3
CCCn1c(CCC(=O)O)ccc1-c1ccccc1,6,3.7,4114,-1,3,6,-7
CCCCNS(=O)(=O)c1ccc(OC)c(C)c1,-2,3.8,4422,-29,.,.,2

Laid out differently: entries from further up.
Order of results: Sa ugtP lethal	Sa RN4220 lethal	Bead autofluor	PrP 5UTR inh	Mtb hypoxia rep	Mtb hypoxia rep growth	BJeLR lethal
CCCn1c(CCC(=O)O)ccc1-c1ccccc1
 : 6	3.7	4114	-1	3	6	-7
CCCCNS(=O)(=O)c1ccc(OC)c(C)c1
 : -2	3.8	4422	-29	.	.	2

(next part)
SMILES,Sa ugtP lethal,Sa RN4220 lethal,Bead autofluor,PrP 5UTR inh,Mtb hypoxia rep,Mtb hypoxia rep growth,BJeLR lethal
COc1cccc(/C=N/Nc2ncc(C)c(=O)[nH]2)c1OC,.,.,3381,-14,.,.,-9
Cn1c(CN2CCCC2)nc2cc(NC(=O)c3ccc(Cl)cc3)ccc21,5,3.2,3884,-52,-5,2,1
O=C(Nc1ccc(F)cc1F)c1c(C(F)(F)F)ccnc1Oc1ccccc1,15,8.4,4515,.,16,2,7
CCOc1ccc(NC(=O)CN(C)C(=O)c2cc([N+](=O)[O-])ccc2Sc2ccccc2)cc1OCC,8,1.0,5159,6,0,-2,.
Brc1ccc(C2=CC(c3ccco3)n3nnnc3N2)cc1 (configuration not stated),-6,7.3,3226,-33,12,17,13
CC(=O)c1cccc(NC(=O)c2ccncc2)c1,0,4.1,10067,-27,12,8,-6
CCCCCCCCCCCCCCCC(=O)NCCO,4,1.9,4240,-8,3,2,.
Cc1cc(/C=N/NC(N)=S)c(C)n1-c1ccc(Br)cc1,.,.,3862,-28,.,.,-4
COc1cc(C(=O)Nc2ccc3c(c2)C(=O)c2ccccc2C3=O)cc(OC)c1OC,-2,2.8,9652,-3,11,2,-20
CCOC(=O)c1cc(C)[nH]c(=S)c1C#N,-8,-4.7,4235,-22,.,.,-7
CC(C)CN(C(=O)COC(=O)CCC(=O)c1ccc(F)cc1)c1c(N)n(Cc2ccccc2)c(=O)[nH]c1=O,6,1.7,?,-11,1,13,2
Cc1cc2ccccc2n2c(SCC(=O)Nc3ccc(S(=O)(=O)N4CCCCC4)cc3)nnc12,-13,6.4,1924,-8,3,-3,-8
c1ccc2c(c1)Cc1cc3ccccc3nc1-2,17,5.6,2888,-102,5,5,6
CSc1nc2nc(-c3cccc(C(F)(F)F)c3)ccn2n1,2,3.4,4781,-9,4,2,-10
CCOC(=O)C1(Cc2cccc(F)c2)CCN(Cc2c(C)nn(CC)c2C)CC1,1,5.3,4369,-8,2,-6,7
Cc1ccc(Cl)c(NC(=O)CCl)c1Cl,3,4.0,4010,-15,6,18,1
COC(=O)Cc1ccc(OCC(=O)Nc2ccc(OC(F)(F)F)cc2)cc1,4,9.4,2771,-10,6,4,-8
CCOc1cc(C=NNC(=O)C2CC2)ccc1OC(C)C,6,1.6,.,.,10,10,.
O=C(c1ccc(COc2ccc3c(c2)CCC3)o1)N1CCN(c2ccccc2)CC1,5,-1.0,8173,-25,8,10,0
COc1cc(CNCc2ccccc2)cc(Cl)c1OC,4,8.4,3376,-15,0,3,2
CCCCn1c(N)c(N(CC(C)C)C(=O)c2cccc(S(=O)(=O)N(CC)c3ccccc3)c2)c(=O)[nH]c1=O,3,2.7,4049,-17,1,3,.
COc1ccc(NC(=O)c2ccccc2Oc2ccccc2)c(OC)c1,18,-1.2,2964,-10,16,25,-17
COc1ccccc1NC(=O)c1sc2nc(N3CCOCC3)c3c(c2c1N)CCCC3,1,9.9,5869,-26,-1,-5,0
CC(C)C[C@H](NC(=O)OC(C)(C)C)C(=O)NN=Cc1ccc2nccnc2c1,-4,3.7,.,.,1,2,.
Cc1noc(C)c1C(=O)OCC(=O)N(C)C1CCS(=O)(=O)C1 (configuration not stated),-7,2.2,4435,-12,-7,11,5
CCCC(=O)OCC[N+](C)(C)C,10,7.0,5282,3,0,7,-9
NCCc1c(-c2ccccc2)n(-c2ccccc2)c2ccccc12,0,3.8,6409,0,1,20,8
CN(CC(=O)NCc1ccccn1)S(=O)(=O)c1ccc2ccccc2c1,8,1.8,4815,-29,4,10,-1
CC(=O)NC(CC(=O)N1CCN(C(C)=O)CC1)c1ccccc1 (configuration not stated),12,0.9,4299,-13,14,-1,-10
CC(C)Nc1cc(C(C)(C)C)nc2c(-c3ccccc3)cnn12,68,-13,5734,-47,12,2,-6
Cc1ccc(C2=C/C(=C/c3cccs3)C(=O)O2)cc1,7,-1.6,2124,-44,7,6,0
Cn1cnnc1SCC(=O)Nc1cc(S(=O)(=O)N2CCCCCC2)ccc1Cl,.,.,2437,-4,.,.,-11
COc1ccccc1C(=O)Nc1ccnn1C1CCN(Cc2cnn(C)c2C)CC1,4,1.9,5188,-25,4,3,-5
CC(=O)Oc1ccc(C(=O)O)cc1OC(C)=O,-4,-0.5,9034,-6,0,1,4
COc1ccc(NC(=O)NCCCN2CCN(c3ccccc3F)CC2)cc1,4,1.6,4812,-21,-4,2,-3
CCOc1ccc(C(=O)OCC(=O)NC(C)C)cc1,10,2.2,4021,-19,6,-3,11
Cc1nc(-c2ccccc2Cl)sc1C(=O)/C=C/N(C)C,13,9.9,4025,-18,20,0,.
Clc1ccc(C2CC(c3ccccc3)Nc3ncnn32)cc1 (configuration not stated),6,-1.0,5518,-24,.,.,1
O=C(c1ccc(F)c([N+](=O)[O-])c1)N1CC2CC(C1)c1cccc(=O)n1C2 (configuration not stated),8,0.5,3833,-5,5,12,-2
O=[N+]([O-])c1cccc(-c2n[nH]c(=S)n2Cc2ccccc2)c1,1,6.6,2280,-12,1,4,-9
COCCN(C(=O)COC(=O)Cc1cccc(OC)c1)c1c(N)n(Cc2ccccc2)c(=O)[nH]c1=O,6,2.8,4682,-5,3,-10,1
CC(=O)c1ccc(N=C2NC(=O)C(CO)(CO)S2)cc1,0,-2.8,3073,-18,-2,-6,-14
Cc1ccc(-c2cc(C(=O)Nc3cc(C)on3)no2)cc1,4,2.2,1940,-52,-5,-19,-6
Cc1ccc(C)c(Cn2nnc3c(=O)[nH]c(C4CCN(S(=O)(=O)c5ccc(S(=O)(=O)N(C)C)cc5)CC4)nc32)c1,3,1.8,5940,8,-9,2,9
CCCCNC(=O)Cn1nc(C)c(S(=O)(=O)N2CCOCC2)c1C,5,4.6,5622,-12,0,2,.
CCCn1nnc(NC(=S)NC(=O)/C=C/c2ccco2)n1,5,4.5,3796,-17,14,7,6
